GLA inh pH 4.5 – alpha-galactosidase A (human) inhibition, pH 4.5; P06280; purified enzyme, 4-MU-alpha-Gal fluorescence, pH 4.5; activity change, negative = inhibition, % at 105 µM; 230,000 tested, under 10 active; AID 1467; inconclusive = small, poorly fitted or top-dose-only inhibition, or a rising curve; inactive = flat fitted curve, though single readings scatter; no compound was filed as active;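 also: 0% = full activity with enzyme and -100% = basal without enzyme; dose as in the result columns while the protocol names 77 µM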
Rango release inh – inhibition of RanGTP-driven Rango-importin beta dissociation; Biochemical FRET Rango-importin beta, RanGTP-induced dissociation; Potency, µM (series often up to 46.1 µM), for inactives: at the top dose activity change, negative = inhibition; O95149+P62826; 340,000 compounds, 0.071% hits; active means falling FRET ratio curve, often poorly fitted, with flat reads before Ran was added; inconclusive means other falling curves, or compound fluorescence or quenching; inactive means flat or rising ratio curve;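 also: potency is read from the fitted curve at half-maximal effect; % of control where 0% means no effect; nearly all actives have a fitted effect of over 45% in size; -100% = wells without RanGTP and RCC1; the record marks most hits as doubtful in a second field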
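Quantitative HTS using a FRET biosensor: 0.1 uM Rango, 0.25 uM importin beta, 0.6 uM Ran, 2 mM GTP, 0.2 uM RCC1 final, PBS with DTT, Tween-20 and BSA. Post-read taken 45 min after Ran addition.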
miR-21 reporter – raises the signal of a miR-21 reporter | AID 2288 | 340,000 tested, under 10 active | HeLa miR-21 FLuc reporter, luciferase, 48 h | Potency, µM (top dose mostly 38.3 µM), for inactives: top-dose reporter change, positive = more light; active = well fitted rising curve with a large enough effect; inconclusive = small, poorly fitted or top-dose-only effect; inactive = no such curve, though single readings can be large or run the other way;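 also: % of control where 0% means no effect; miR-21 action dims this reporter so a rising signal means less miR-21 action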
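Luminescence from a firefly luciferase reporter carrying a miR-21 binding site downstream, stably expressed under a CMV promoter in HeLa cells that make miR-21 endogenously, reports miRNA modulation after 48 h compound exposure up to approximately 40uM final.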
Rango-impB inh – inhibitors of Rango-importin beta complex formation | 340,000 compounds, 0.031% hits | Potency, µM (series often up to 92.2 µM), inactives show at the top dose inhibition of complex formation | Q14974 | Rango CFP/YFP FRET sensor + importin beta, 45 min; active = rising FRET ratio curve, often small or poorly fitted; inconclusive = mostly compound fluorescence or quenching in the first reads; inactive = flat curves in all reads;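 also: potency is read from the fitted curve at half-maximal effect; 0% = DMSO wells and 100% = buffer wells lacking importin beta; nearly all actives have a fitted effect of over 15% in size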
Target sequence (Q14974 whole entry, looked up): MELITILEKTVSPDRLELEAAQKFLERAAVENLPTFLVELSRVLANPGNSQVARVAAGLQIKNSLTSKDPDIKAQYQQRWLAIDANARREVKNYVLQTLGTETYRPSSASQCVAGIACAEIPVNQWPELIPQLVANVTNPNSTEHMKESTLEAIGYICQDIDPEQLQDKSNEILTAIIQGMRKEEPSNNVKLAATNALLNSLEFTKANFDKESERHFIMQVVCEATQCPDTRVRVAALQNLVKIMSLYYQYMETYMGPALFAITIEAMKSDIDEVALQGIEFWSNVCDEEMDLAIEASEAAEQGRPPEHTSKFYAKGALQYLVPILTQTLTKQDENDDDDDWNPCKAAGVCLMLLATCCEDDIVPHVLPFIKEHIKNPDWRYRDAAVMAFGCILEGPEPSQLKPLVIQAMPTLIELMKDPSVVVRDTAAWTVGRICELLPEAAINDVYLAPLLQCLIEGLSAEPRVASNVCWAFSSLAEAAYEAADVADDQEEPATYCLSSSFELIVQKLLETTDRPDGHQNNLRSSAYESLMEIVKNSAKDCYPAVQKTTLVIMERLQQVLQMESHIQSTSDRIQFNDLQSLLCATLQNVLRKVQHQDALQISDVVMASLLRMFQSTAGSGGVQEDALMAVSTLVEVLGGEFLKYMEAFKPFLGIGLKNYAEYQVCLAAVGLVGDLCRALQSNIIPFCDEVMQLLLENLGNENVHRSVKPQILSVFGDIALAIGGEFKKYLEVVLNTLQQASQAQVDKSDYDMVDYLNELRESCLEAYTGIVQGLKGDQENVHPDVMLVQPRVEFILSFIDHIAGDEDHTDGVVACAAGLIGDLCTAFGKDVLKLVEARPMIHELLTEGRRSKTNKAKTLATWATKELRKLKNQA
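FRET biosensor (snurportin 1 IBB flanked by EYFP and cerulean), 50 nM, with compound 5 min, then 0.125 microM importin beta in PBS, 1 mM DTT, 0.02% Tween-20, 0.1% BSA. CFP/YFP ratio read after 45 min at room temperature; pre-read flags interference.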
Numbers without * were called inactive; ? = inconclusive; . = no result given; & = joins results of further samples; [ ] = dose if it differs, or a comment. These rows are one share of the data. The share of hits here may be higher or lower than overall.

GLA inh pH 4.5	Rango release inh	miR-21 reporter	Rango-impB inh	Molecule
.	-4%	2%	-2.0%	O=C(CNC(=O)c1ccc(OC(F)F)cc1)NCC1CCCO1 (stereo not drawn)
6	2%	-2%	6.7%	CCc1nnc(NC(=O)Cn2ccc(C(F)(F)F)n2)s1
-1	-1%	7%	-2.2%	CC(=O)N1CCc2cc(Br)cc(S(=O)(=O)NCc3ccccn3)c21
.	-7%	-10%	-0.8%	CC(=O)N1N=C(c2ccccc2)CC1c1ccc(F)cc1 (stereo not drawn)
-6	1%	-8%	-0.5%	NS(=O)(=O)c1ccc(NC(=O)/C=C/c2ccco2)cc1
-8	5%	-4%	?	CC(C)C(C(=O)Nc1ncn[nH]1)N1C(=O)c2ccccc2C1=O (stereo not drawn)
.	-12%	-4%	0.5%	CC(C)c1ccc(C2NC(=O)c3ccccc3O2)cc1 (stereo not drawn)
.	-2%	8%	0.7%	Cc1cnc(NC(=O)NCC2CCCC(CNC(=O)Nc3ncc(C)s3)C2)s1 (stereo not drawn)
-2	2%	-3%	0.5%	CCOC(=O)C1CCN(C(=O)CCc2nc3ccccc3[nH]2)CC1
0	-5%	-1%	-1.7%	CCCc1nc2c(sc3nc4c(cc32)COC(C)(C)C4)c(=O)n1Cc1ccco1
-6	-16%	-2%	?	CCC1CSC(Nc2ccc(C(=O)/C=C/c3ccc(Oc4ccccc4)cc3)cc2)=N1 (stereo not drawn)
.	-13%	1%	0.2%	Cc1cc(C(=O)N2CCCC(Nc3ccc(F)cc3)C2)n(C)n1 (stereo not drawn)
.	?	1%	1.1%	COc1cc(NC(=S)NC(=O)CCc2ccccc2)cc(OC)c1
8	-9%	0%	-1.1%	CN1C(=O)Cc2cc(S(=O)(=O)N3CCOCC3)ccc21
6	-17%	-2%	-1.0%	O=c1nc(-c2ccccc2)n(-c2ccccc2)c2ncccc12
.	-3%	3%	-2.1%	CCCCN(CC)CCNC(=O)c1cc2c(-c3ccccc3F)nn(C)c2s1
-8	-4%	23%	-3.1%	O=S(=O)(c1ccccc1)N1CCC(O)(CSc2ccc(F)cc2)CC1
.	-10%	6%	?	CN1CCN(C(=O)c2ccc(CNS(=O)(=O)c3cccc(Cl)c3)cc2)CC1
1&-19	?	0%&-4%	?	COc1ccc2c(C=Nc3c(C)n(C)n(-c4ccccc4)c3=O)c(O)n(Cc3ccco3)c(=O)c2c1
4	1%	0%	-0.3%	CC1CCN(CCC(=O)Nc2ccccc2)CC1
.	-1%	17%	-1.6%	CC(=O)c1ccc(OCc2cc(C(=O)N3CCC(c4ccncc4)CC3)no2)cc1
-8[21.1 µM]	-13%	-1%	6.7%	O=C1NC(=O)/C(=C\c2ccsc2)N1
.	-6%	.	-0.7%	C[C@H](CO)N1C[C@H](C)[C@@H](CN(C)C(=O)NC2CCCCC2)Oc2c(NS(=O)(=O)c3cccs3)cccc2C1=O
.	20%	1%	1.6%	Cc1ccc(C)c(N2CCN(S(=O)(=O)c3ccc(-c4ccc(=O)[nH]n4)o3)CC2)c1
-1	-8%	-34%	?	CC(=O)c1sc(-c2ccc(Cl)cc2)cc1N
0	-6%	-8%	-5.9%	CCc1nnc(NC(=O)CSc2nnc(-c3c[nH]c4ccccc34)n2CCOC)s1
9	-2%	-8%	4.2%	CC(C)(CO)NCC#Cc1ccccc1
5	.	-3%	.	Cc1ccc(C(=O)NC(C)c2nc3ccccc3n2CC(=O)Nc2c(C)cc(C)cc2C)cc1 (stereo not drawn)
-3	1%	2%	3.4%	O=C(CCCN1C(=O)/C(=C/c2ccco2)SC1=S)Nc1ccccc1C(=O)O
17	?	-1%	?	Cc1ccc2nc(NCC(N)=O)nc(-c3ccccc3)c2c1
.	-6%	-52%	?	CN(C)c1ccc(/C=N/Nc2nncc3ccccc23)cc1
-3	-9%	0%	-2.0%	CC(C(=O)OCC(=O)c1ccccc1)N1C(=O)C2C3CCC(C3)C2C1=O (stereo not drawn)
-8	-8%	4%	-1.2%	CCOc1cc(CNc2ccc(N3CCOCC3)cc2)cc(Br)c1OCC
9	5%	-6%	-3.3%	CC(C)(C)c1ccc(-c2n[nH]c(=S)n2CCCN2CCOCC2)cc1
-11	?	0%	?	COc1ccc2c(CC(=O)Nc3ccc(OC)c(NS(=O)(=O)c4ccc(F)cc4)c3)coc2c1
.	-8%	.	?	NC(=O)c1ccc(Cn2c(C(=O)c3cc(Cl)c(N)c(Cl)c3)c3ccccc3[n+]2[O-])cc1
.	-11%	-6%	0.3%	Cc1ccc(S(=O)(=O)Nc2cc(=O)[nH]c(SCC(=O)Nc3cccc(C(F)(F)F)c3)n2)cc1
.	-6%	-3%	3.7%	O=C(CCc1ccccc1)NNC(=O)c1ccc(Cl)cc1
.	-12%	0%	0.8%	CCCCNC(=O)CCc1nc2cccnc2n1Cc1ccccc1
.	4%	2%	-4.8%	Cc1nc(N(CCO)C2CCCCC2)c2nnn(Cc3ccccc3)c2n1
-1	-8%	26%	-1.6%	CCOc1ccccc1NC(=O)CN(c1ccc(C)cc1)S(=O)(=O)c1c(C)n[nH]c1C
-10	-1%	.	0.9%	CCOC(=O)C1(C)Oc2ccccc2C(c2ccc(OC)cc2)=C1C(=O)OC (stereo not drawn)
5	-2%	-3%	?	Cc1cc(Nc2ccc3c(c2)OCCO3)n2nc(C)nc2n1
6	-9%	-11%	1.4%	O=C(Nc1ccccc1N1CCOCC1)C1CCN(S(=O)(=O)c2ccc(F)cc2)CC1
6	-13%	-36%	0.9%	CC(C)c1ccc(-c2cc(C(=O)NN3CCN(C)CC3)c3ccccc3n2)cc1
7	-15%	3%	0.2%	CCOC(=O)C1CCN(CCC(=O)Nc2ccc(C)c(C)c2)CC1
.	-3%	-5%	5.5%	Cc1nc(C(F)(F)F)ccc1C(=O)Nc1ccccc1N1CCOCC1
.	0%	6%	-5.4%	COCCn1c(=O)c2c(nc3n2CCCN3CCc2ccc(OC)c(OC)c2)n(C)c1=O
.	4%	.	-1.6%	CN(C(=O)c1cccc(NC(=O)C2CCCN(C(=O)OC(C)(C)C)C2)c1)C1CCC1 (stereo not drawn)
.	0%	.	-1.1%	CCCCn1c(N)c(N(CC(C)C)C(=O)CSCC(=O)Nc2ccc(C)cc2)c(=O)[nH]c1=O

The list continues.
GLA inh pH 4.5	Rango release inh	miR-21 reporter	Rango-impB inh	Molecule
.	-8%	1%	?	CCOC(=O)C1CCN(C(=O)c2ccc3c(c2)NC(=O)/C(=C/c2ccccc2)S3)CC1
.	35%	.	-1.4%	COCC(=O)Nc1c(I)c(C(=O)NCC(O)CO)c(I)c(C(=O)N(C)CC(O)CO)c1I (stereo not drawn)
.	0%	21%	1.5%	CC1Sc2ccc(S(=O)(=O)N3CCN(c4cccc(Cl)c4)CC3)cc2NC1=O (stereo not drawn)
.	-8%	-18%	-2.0%	O=C(Nc1ccc(C(=O)NCC2CCN(Cc3ccccc3F)CC2)cc1)C1=CSCCO1
.	-8%	4%	?	O=C(NC(Cc1ccccc1)C(=O)O)/C(=C/c1ccc([N+](=O)[O-])cc1)NC(=O)c1ccco1 (stereo not drawn)
.	26%	17%	0.2%	Cc1cccc(N2CCN(C(=O)COc3ccc4ccc(=O)oc4c3)CC2)c1C
.	-4%	-1%	-0.5%	Cc1ccc(N2CC(C(=O)Nc3nnc(SCC(=O)NCC4CCCO4)s3)CC2=O)cc1C (stereo not drawn)
-4	0%	0%	2.2%	Cc1ccc(C)c(NC(=O)Cn2nnc(C(=O)Nc3c(C)cccc3C)c2N)c1
-3	-11%	-13%	-0.8%	O=C(N/N=C/c1ccc(OC(F)F)cc1)c1ccc(Br)cc1
3	3%	-23%	-0.1%	OCC1CCCN(C(=S)Nc2ccc(Nc3ccccc3)cc2)C1 (stereo not drawn)
3	-9%	0%	0.4%	COCCCNCCOc1ccc(C)cc1[N+](=O)[O-]
.	5%	.	-3.3%	COc1ccc(CCC(=O)OCC(=O)Nc2sccc2C(N)=O)cc1OC
.	15%	5%	5.3%	Nc1nonc1-n1nnc(C(=O)N/N=C/c2cccc(Cl)c2)c1-c1cccs1
-8	-2%	-3%	-0.9%	c1ccc(N(c2ccccc2)c2nc(-n3ccnc3)nc(-n3ccnc3)n2)cc1
1	1%	-22%	?	c1ccn2cc(CSc3nnc4ccccn34)nc2c1
-5	0%	-7%	-2.2%	COc1ccc(C2c3c(-c4cc(Cl)c(C)cc4O)n[nH]c3C(=O)N2Cc2cccnc2)cc1OC (stereo not drawn)
2	5%	-1%	-0.6%	COc1cc(OC)cc(C(=O)NCC(=O)OCC(=O)N2CCc3ccccc32)c1
-10	2%	-4%	6.3%	CCOC(=O)C1=C(N)OC2=C(C(=O)CC(C)(C)C2)C1c1ccccc1OC (stereo not drawn)
6	-4%	0%	1.7%	CN(C)S(=O)(=O)c1cccc(NC(=O)COC(=O)c2ccc(Br)o2)c1
1	?	8%	-1.4%	CCc1ccc(/C=C2\SC(=S)N(CCCC(=O)Nc3ccccn3)C2=O)cc1
.	-36%	.	?	O=C(CN1CCOc2ccccc21)NC1CCCCCCC1
-2	9%	-2%	-0.1%	COc1ccc(OC)c(/C=N/NC(=O)c2csc3ccccc23)c1
.	-8%	-3%	-1.5%	O=C(NC1CCN(S(=O)(=O)c2ccc(F)cc2)CC1)c1ccc(F)cc1
-12	-1%	-12%	0.3%	COc1ccc(CN=C2NN=C(c3ccc(Cl)cc3)CS2)cc1
-2	16%	?	2.5%	O=C1C=C(c2ccc(Cl)cc2)C(=O)N1Nc1ccccc1
-17	-3%	-39%	-1.9%	CC(C)(C)c1ccc(OCC(=O)NCc2ccco2)c(Br)c1
4	5%	-8%	1.9%	COC(=O)Nc1ccc(C)cc1NC(=O)OC
11	?	-5%	?	CNc1ccc(Br)cc(C(=O)/C=C/c2cccc(OC)c2)c1=O
0	37%	0%	0.3%	COC(=O)COc1ccc2oc(=O)cc(C)c2c1
.	3%	.	-2.4%	O=C(COC(=O)C1CCC1)Nc1ncc(Cl)cc1Cl
4	-1%	-12%	-4.5%	Cc1c(C(=O)N2CCCCC2)sc(NC(=O)C2CC2)c1C#N
7	11%	-6%	-0.1%	Cn1c(SCC(=O)N2CCOCC2)nnc1-c1cnccn1
6	.	0%	.	CCCn1c(=O)c(C(=O)Nc2nnc(CC)s2)c(O)c2ccccc21

Rewritten bar-delimited: two of the compounds above
SMILES | GLA inh pH 4.5 | Rango release inh | miR-21 reporter | Rango-impB inh
COCCCNCCOc1ccc(C)cc1[N+](=O)[O-] | 3 | -9% | 0% | 0.4%
CCC1CSC(Nc2ccc(C(=O)/C=C/c3ccc(Oc4ccccc4)cc3)cc2)=N1 (stereo not drawn) | -6 | -16% | -2% | ?

An excerpt taken from the entries so far, for reference:
GLA inh pH 4.5	Rango release inh	miR-21 reporter	Rango-impB inh	Molecule
.	3%	.	-2.4%	O=C(COC(=O)C1CCC1)Nc1ncc(Cl)cc1Cl
4	-1%	-12%	-4.5%	Cc1c(C(=O)N2CCCCC2)sc(NC(=O)C2CC2)c1C#N
7	11%	-6%	-0.1%	Cn1c(SCC(=O)N2CCOCC2)nnc1-c1cnccn1

One compound at a time, from the list above:
CCCn1c(=O)c(C(=O)Nc2nnc(CC)s2)c(O)c2ccccc21 is entered as GLA inh pH 4.5: 6; Rango release inh: .; miR-21 reporter: 0%; Rango-impB inh: .
Cn1c(SCC(=O)N2CCOCC2)nnc1-c1cnccn1 is entered as GLA inh pH 4.5: 7; Rango release inh: 11%; miR-21 reporter: -6%; Rango-impB inh: -0.1%
Cc1c(C(=O)N2CCCCC2)sc(NC(=O)C2CC2)c1C#N is entered as GLA inh pH 4.5: 4; Rango release inh: -1%; miR-21 reporter: -12%; Rango-impB inh: -4.5%

Compound activity (PubChem)
